Assay outcomes deposited in PubChem BioAssay by Broad Institute.
NOMO-1 viab – STK33 inhibitor candidate reducing NOMO-1 cell viability; NOMO-1 AML viability, CellTiter-Glo luminescence, 72 h; inhibition, % (no concentration beside the values); hit rate 7.5% among 37,000; AID 2330;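 active means most replicates above 80%; inconclusive means exactly half above 80%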;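 further: wells of about 30 µL received 25 nL stock; 0% = median of vehicle wells and 100% = reference inhibitor level; the first replicate is given; inactives centre near 10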
Active calls of the source: *; ? = inconclusive. Some of the compounds tested. The share of hits here may be higher or lower than overall.

SMILES	NOMO-1 viab
COc1ccccc1N1CCN(CC(=O)Nc2ccc([N+](=O)[O-])cc2C(=O)Nc2ccccc2F)CC1	55.4
CN1C(=O)C(=Cc2cccn2-c2ccc(N(C)C)cc2)C(=O)N(C)C1=S	43.1
COc1ccc(S(=O)(=O)N(C)C[C@H]2Oc3ccc(NC(=O)Cn4cnnn4)cc3CC(=O)N([C@@H](C)CO)C[C@H]2C)cc1	-11.0
C=CCSc1nnc(-c2ccccc2NC(=O)CC)c(=O)[nH]1	-8.6
O=C(Nc1cc(C(F)(F)F)cc(C(F)(F)F)c1)C(=S)N1CCCCC1	34.5
O=C1c2nc3cc(-c4ccccc4)[nH]n3c(=O)c2CN1C1CCCCC1	1.2
S=C(NCCc1ccccc1)N1CCc2ccccc21	32.9
CC(C)NC(=O)Nc1ccc2c(c1)CC(=O)N([C@H](C)CO)C[C@H](C)[C@H](CN(C)C(=O)Nc1ccc(F)cc1)O2	16.4
CC(C)NC(=O)N(C)C[C@@H]1Oc2ccc(NC(=O)Cc3cn(C)c4ccccc34)cc2CC(=O)N([C@H](C)CO)C[C@@H]1C	25.9
COc1ccc(NC(=O)N(C)C[C@H]2Oc3c(NC(=O)c4nc5ccccc5s4)cccc3C(=O)N([C@@H](C)CO)C[C@@H]2C)cc1	-5.5
COc1cc(CCC(O)CC(O)CCc2ccc(O)c(O)c2)ccc1O (centres undefined)	10.9
COc1ccc(NC(=O)N(C)C[C@H]2Oc3ccc(NC(=O)Cc4ccccc4)cc3C(=O)N([C@@H](C)CO)C[C@@H]2C)cc1	7.2
O=C(Cn1cnc2ccccc2c1=O)NCc1ccco1	16.0
O=C(CC1(O)C(=O)N(CCc2ccccc2)c2ccc(Br)cc21)c1ccncc1 (centres undefined)	114.3*
N#Cc1cccc(CSc2nnc(SCc3cccc(C#N)c3)s2)c1	16.9
C[C@H](CO)N1C[C@H](C)[C@H](CN(C)Cc2ccc(Oc3ccccc3)cc2)Oc2ccc(NS(=O)(=O)c3cn(C)cn3)cc2CC1=O	4.2
O=C(Nc1ccccc1)/C(=C/c1ccccc1)NC(=O)c1ccccc1	14.7
C[C@H]1CN([C@@H](C)CO)C(=O)c2cc(NC(=O)CCCCCC(=O)Nc3ccccc3N)ccc2O[C@H]1CN(C)S(=O)(=O)c1ccc(Cl)cc1	28.6
C[C@H](CO)N1C[C@H](C)[C@H](CN(C)C(=O)Nc2ccc3c(c2)OCO3)Oc2ccc(NC(=O)c3ccncc3)cc2CC1=O	4.9
CNC[C@@H]1Oc2ccc(NS(C)(=O)=O)cc2C(=O)N([C@H](C)CO)C[C@@H]1C	-5.4
C[C@@H]1CN([C@@H](C)CO)C(=O)c2cccc(NS(C)(=O)=O)c2O[C@H]1CN(C)Cc1ccccc1	8.5
C[C@H](CO)N1C[C@H](C)[C@H](CN(C)C)Oc2ccc(NC(=O)Nc3ccc(C(F)(F)F)cc3)cc2C1=O	24.4
O=C(CC1(O)C(=O)N(Cc2cccc3ccccc23)c2ccccc21)c1ccc(F)cc1 (centres undefined)	84.0*
Cc1ccc(S(=O)(=O)Nc2ccc3c(c2)CC(=O)N([C@@H](C)CO)C[C@@H](C)[C@@H](CN(C)Cc2ccc(Oc4ccccc4)cc2)O3)cc1	114.8*
C/C=C/c1ccc(O)cc1C(=O)C(C)O (centres undefined)	3.7
Next results follow.
SMILES	NOMO-1 viab
C[C@@H]1CN([C@H](C)CO)C(=O)Cc2cc(NC(=O)c3ccncc3)ccc2O[C@H]1CN(C)Cc1ccccc1	33.1
O=C(NCc1ccco1)C1(c2ccccc2)CCOCC1	16.7
Cc1ccc(NC(=O)CSc2nnnn2C)c(C)c1	6.2
O=C(CC1NC2CCCCC2NC1=O)Nc1ccc(F)cc1 (centres undefined)	26.1
C[C@@H]1CN([C@H](C)CO)C(=O)c2cc(NC(=O)NC3CCCCC3)ccc2O[C@@H]1CN(C)C(=O)Nc1cccc2ccccc12	1.6
CCOC(=O)c1ccc(NC(=O)C2CC(C)=C(C)CC2C(=O)O)cc1 (centres undefined)	22.0
COc1ccc([C@@H](C)C(=O)c2ccc(O)cc2O)cc1	-8.9
C[C@H](CO)N1C[C@H](C)[C@H](CN(C)Cc2ccc(Cl)c(Cl)c2)Oc2c(NC(=O)Nc3ccc(C(F)(F)F)cc3)cccc2C1=O	94.3*
C[C@@H]1CN([C@H](C)CO)C(=O)c2cc(NS(C)(=O)=O)ccc2O[C@@H]1CN(C)C(=O)Nc1ccccc1	13.5
COc1ccc(OC)c(S(=O)(=O)N(C)CC(=O)Nc2ccccc2F)c1	-2.8
Cc1ccc(NC(=O)Cn2nc(C)c([N+](=O)[O-])c2C)cc1C	14.1
COc1ccc(CN(C)C[C@@H]2Oc3ccc(NC(=O)Nc4ccc5c(c4)OCO5)cc3CC(=O)N([C@@H](C)CO)C[C@@H]2C)cc1	15.6
CC(=O)OC(C)(C)[C@@H]1Cc2cc3ccc(=O)oc3cc2O1	5.4
C[C@@H]1CN([C@H](C)CO)C(=O)c2cc(N(C)C)ccc2O[C@H]1CN(C)CC1CCCCC1	-6.9
C[C@@H]1CN([C@H](C)CO)C(=O)c2cc(NC(=O)Nc3cccc4ccccc34)ccc2O[C@H]1CN(C)C	10.6
C[C@H](CO)N1C[C@H](C)[C@@H](CN(C)CC2CCCCC2)Oc2ccc(NC(=O)c3ccncc3)cc2C1=O	0.0
CNC[C@H]1Oc2c(cccc2N(C)C)C(=O)N([C@H](C)CO)C[C@H]1C	-6.4
C=C[C@@]1(C)CC(=O)[C@]2(O)[C@@]3(C)[C@@H](O)CCC(C)(C)[C@@H]3[C@H](O)[C@H](OC(=O)CCCN3CCN(C)CC3)[C@@]2(C)O1	5.4
CCn1c(SCC(=O)c2cccc([N+](=O)[O-])c2)nnc1-c1ccc(Cl)cc1Cl	42.9
C[C@H]1CN([C@@H](C)CO)C(=O)c2cccc(NC(=O)Nc3ccc4c(c3)OCO4)c2O[C@@H]1CN(C)S(=O)(=O)c1ccc(Cl)cc1	22.5
Cc1noc(C)c1NC(=O)N(C)C[C@H]1Oc2ccc(NC(=O)C3CCCCC3)cc2C(=O)N([C@@H](C)CO)C[C@H]1C	-21.4
Cc1ccc2c(C(=O)Nc3sc4c(c3C(N)=O)CCCCC4)cc(-c3ccccn3)nc2c1C	74.6
C[C@@H]1CN([C@@H](C)CO)C(=O)c2cccc(NC(=O)C3CC3)c2O[C@@H]1CN(C)S(=O)(=O)c1ccc(Cl)cc1	24.3
CCc1ccc(-c2nc3ccccc3c(=O)o2)cc1	18.6
C[C@H]1CN([C@@H](C)CO)C(=O)c2cc(NC(=O)Nc3ccc(C(F)(F)F)cc3)ccc2O[C@H]1CN(C)C(=O)Nc1ccc(F)cc1	76.3
Following part.
SMILES	NOMO-1 viab
Cn1c(=O)c2c(nc(SCCNS(=O)(=O)c3ccccc3)n2C)n(C)c1=O	15.9
Cc1c(Cl)cccc1NC(=O)CSCC(N)=O	8.8
COc1ccc(-n2c(SCC(=O)Nc3ccccc3C)nc3ccccc3c2=O)cc1	12.0
COC(=O)c1ccccc1NC(=O)CSc1n[nH]c(-c2ccncc2)n1	19.3
Nc1cc2ncnc(Nc3cccc(Br)c3)c2cc1N	11.9
Cc1noc(C)c1NC(=O)N(C)C[C@H]1Oc2c(NS(=O)(=O)c3cccs3)cccc2C(=O)N([C@H](C)CO)C[C@@H]1C	-10.3
O=C(COc1ccc(Cl)cc1)NC(=S)Nc1ccccc1N1CCOCC1	-0.5
Cc1noc(C)c1NC(=O)N(C)C[C@H]1Oc2ccc(NC(=O)Nc3cccc4ccccc34)cc2CC(=O)N([C@@H](C)CO)C[C@H]1C	3.0
Cc1sc(NC(=O)c2cnccn2)c(C(N)=O)c1-c1ccccc1	4.5
COc1ccc(S(=O)(=O)Nc2ccc3c(c2)C(=O)N([C@H](C)CO)C[C@H](C)[C@H](CN(C)S(=O)(=O)c2ccccc2)O3)cc1	28.6
COc1ccc(-c2cc(C(F)(F)F)n3nc(C(=O)NCCN4CCOCC4)c(Br)c3n2)cc1	-1.6
CS(=O)(=O)NCCOc1ccccc1	-4.3
C[C@@H]1CN([C@H](C)CO)C(=O)Cc2cc(NC(=O)NC3CCCCC3)ccc2O[C@H]1CN(C)CC1CC1	10.8
CCCN(C)C[C@@H]1OCCCC[C@@H](C)Oc2ccc(NC(=O)c3ccccc3)cc2C(=O)N([C@H](C)CO)C[C@@H]1C	?
COc1ccccc1NC(=O)CNC(=O)c1ccc(C)cc1	18.1
C[C@H]1CN([C@@H](C)CO)C(=O)c2cccc(NC(=O)Nc3ccc(F)cc3)c2O[C@H]1CN(C)Cc1ccccc1	46.4
CC1CN=C(NS(=O)(=O)c2ccccc2)N1 (centres undefined)	18.8
C[C@@H]1CN([C@@H](C)CO)C(=O)c2cccc(NS(C)(=O)=O)c2O[C@H]1CN(C)Cc1ccc(C(=O)Nc2ccccc2N)cc1	17.2
COc1ccc(S(=O)(=O)Nc2cccc3c2O[C@@H](CN(C)Cc2ccc(-c4ccccc4)cc2)[C@H](C)CN([C@@H](C)CO)C3=O)cc1	25.6
CCC(Sc1nnc(N)s1)C(=O)Nc1c(C)cccc1C (centres undefined)	-0.5
C[C@@H]1CN([C@@H](C)CO)C(=O)c2cc(NS(=O)(=O)c3ccccc3)ccc2O[C@H]1CN(C)S(C)(=O)=O	-15.7
C[C@H](CO)N1C[C@H](C)[C@@H](CN(C)Cc2ccc(Oc3ccccc3)cc2)Oc2c(NC(=O)NC3CCCCC3)cccc2C1=O	45.6
CC(C)NC(=O)Nc1ccc2c(c1)C(=O)N([C@H](C)CO)C[C@@H](C)[C@H](CN(C)C(=O)Nc1ccc(C(F)(F)F)cc1)O2	26.8
COc1ccccc1-c1nc(SCC(=O)c2ccc(O)c(O)c2)n[nH]1	?
COC(=O)c1c(NC(=O)c2nc3nc(C)cc(C(F)F)n3n2)sc2c1CCC2	-8.9

Another view of some results above:
molecule,NOMO-1 viab
COc1ccc(S(=O)(=O)Nc2ccc3c(c2)C(=O)N([C@H](C)CO)C[C@H](C)[C@H](CN(C)S(=O)(=O)c2ccccc2)O3)cc1,28.6
COc1ccc(-c2cc(C(F)(F)F)n3nc(C(=O)NCCN4CCOCC4)c(Br)c3n2)cc1,-1.6
CS(=O)(=O)NCCOc1ccccc1,-4.3
C[C@@H]1CN([C@H](C)CO)C(=O)Cc2cc(NC(=O)NC3CCCCC3)ccc2O[C@H]1CN(C)CC1CC1,10.8
CCCN(C)C[C@@H]1OCCCC[C@@H](C)Oc2ccc(NC(=O)c3ccccc3)cc2C(=O)N([C@H](C)CO)C[C@@H]1C,?
COc1ccccc1NC(=O)CNC(=O)c1ccc(C)cc1,18.1
C[C@H]1CN([C@@H](C)CO)C(=O)c2cccc(NC(=O)Nc3ccc(F)cc3)c2O[C@H]1CN(C)Cc1ccccc1,46.4

Remaining list, next part.
SMILES	NOMO-1 viab
C[C@@H]1CCCCO[C@@H](CN(C)C(=O)CCC(F)(F)F)[C@@H](C)CN([C@H](C)CO)C(=O)c2cc(NS(=O)(=O)c3cccs3)ccc2O1	24.9
Cc1noc(C)c1S(=O)(=O)N(C)C[C@@H]1Oc2c(NC(=O)C3CC3)cccc2C(=O)N([C@@H](C)CO)C[C@@H]1C	4.8
Cc1cc(C)c(S(=O)(=O)Nc2c(C)[nH]c(=O)[nH]c2=O)c(C)c1	23.5
CCOc1ccccc1Nc1nc(N)nc(CSc2nccc(C)n2)n1	-11.5
C[C@@H]1CN([C@H](C)CO)C(=O)c2cc(NC(=O)Nc3cccc4ccccc34)ccc2O[C@@H]1CN(C)Cc1ccc2c(c1)OCO2	22.0
COc1ccc(NC(=O)N(C)C[C@H]2Oc3ccc(NC(=O)Nc4ccc5c(c4)OCO5)cc3CC(=O)N([C@@H](C)CO)C[C@H]2C)cc1	0.3
COc1ccc([N+](=O)[O-])cc1N(CC(=O)Nc1cccc(Br)c1)S(C)(=O)=O	3.7
COc1ccc(S(=O)(=O)N(C)C[C@@H]2Oc3ccc(NC(=O)c4ccncc4)cc3CC(=O)N([C@H](C)CO)C[C@H]2C)cc1	-12.2
C[C@@H]1CC[C@]2(C(=O)O[C@@H]3O[C@H](CO)[C@@H](O)[C@H](O)[C@H]3O)CC[C@]3(C(=O)O)C(=CCC4[C@@]5(C)CC[C@H](OC6OC[C@@H](O)[C@H](O)[C@H]6O)C(C)(C)C5CC[C@]43C)C2[C@H]1C (some centres undefined)	-2.6
Cc1ccc(NC(=O)CSc2nnnn2-c2ccc(Cl)c(C(=O)O)c2)cc1C	24.2
C[C@@H]1CN([C@@H](C)CO)C(=O)c2cc(NS(=O)(=O)c3cccs3)ccc2O[C@@H]1CN(C)S(=O)(=O)c1ccccc1	-0.5
COc1ccc(S(=O)(=O)Nc2ccc3c(c2)CC(=O)N([C@H](C)CO)C[C@@H](C)[C@H](CN(C)C(=O)Nc2c(C)noc2C)O3)cc1	16.5
C[C@H]1CN([C@@H](C)CO)C(=O)Cc2cc(NS(=O)(=O)c3cccs3)ccc2O[C@H]1CN(C)Cc1ccc(C(=O)Nc2ccccc2N)cc1	140.6*
C[C@@H]1CCCCO[C@@H](CN(C)C(=O)CCCN(C)C)[C@@H](C)CN([C@H](C)CO)C(=O)c2cc(NC(=O)Nc3ccc(C(F)(F)F)cc3)ccc2O1	-16.4
Cc1ccc(S(=O)(=O)Nc2ccc3c(c2)C(=O)N([C@H](C)CO)C[C@H](C)[C@H](CN(C)S(=O)(=O)c2c(C)noc2C)O3)cc1	18.8
Cc1cc(-c2ccccn2)n[nH]c1=O	13.6
O=C(CCn1cnc2ccccc2c1=O)Nc1ccc2c3c(cccc13)CC2	-25.7

3 compounds from above, arranged by SMILES length, falling:
SMILES	NOMO-1 viab
COc1ccc(NC(=O)N(C)C[C@H]2Oc3ccc(NC(=O)Nc4ccc5c(c4)OCO5)cc3CC(=O)N([C@@H](C)CO)C[C@H]2C)cc1	0.3
C[C@@H]1CN([C@@H](C)CO)C(=O)c2cc(NS(=O)(=O)c3cccs3)ccc2O[C@@H]1CN(C)S(=O)(=O)c1ccccc1	-0.5
COc1ccc([N+](=O)[O-])cc1N(CC(=O)Nc1cccc(Br)c1)S(C)(=O)=O	3.7
